High-throughput results as filed in PubChem.
D2 potentiator: human D2 receptor positive allosteric modulation. 0.23% of 360,000 active. potentiation, % (concentration not given with the values). DiscoveRx D2 beta-arrestin cells, luminescence, 90 min; 100% = 57 uM dopamine signal; active = potentiation of 50% or more; inconclusive = 30% to 50%; inactive = 30% or less;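 also: compound concentration not given in the record; tested on top of an EC20 dose of dopamine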
Target sequence (P14416 whole entry, looked up): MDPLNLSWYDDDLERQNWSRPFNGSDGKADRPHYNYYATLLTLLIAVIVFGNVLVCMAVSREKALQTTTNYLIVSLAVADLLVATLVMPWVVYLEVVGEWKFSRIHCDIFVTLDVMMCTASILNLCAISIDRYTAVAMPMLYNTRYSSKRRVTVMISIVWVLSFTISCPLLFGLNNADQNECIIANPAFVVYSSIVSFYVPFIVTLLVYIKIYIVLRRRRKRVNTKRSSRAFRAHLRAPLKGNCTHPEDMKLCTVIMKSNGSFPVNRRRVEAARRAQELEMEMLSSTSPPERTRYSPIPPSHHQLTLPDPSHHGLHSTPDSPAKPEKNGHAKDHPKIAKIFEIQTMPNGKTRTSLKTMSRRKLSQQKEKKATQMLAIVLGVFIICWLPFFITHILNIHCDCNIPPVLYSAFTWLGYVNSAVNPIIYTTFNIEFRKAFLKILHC
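PathHunter D2 cells, attached overnight at 37 deg C, received compound in DMSO plus dopamine at EC20 (50 nM final) for 90 min at 37 deg C. Beta-arrestin recruitment was read as luminescence after 1 h with detection reagent at ambient temperature.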
gsp ag: agonists of gsp mutant (McCune-Albright syndrome) | gsp mutant cells, cAMP HTRF, 30 min; control for the full effect not named in the record | Potency, µM (top dose mostly 76.9 µM), for inactives: at the highest dose activation (cAMP increase), actives largely listed as activators | 0.13% of 340,000 active | AID 624287; active = well fitted activation curve with a large enough effect; inconclusive = small, poorly fitted or top-dose-only effect, or another doubt; inactive = no such curve, though single readings can be large or run the other way; cell line not stated here;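 also: phosphodiesterase inhibitor Ro 20-1724 added with compounds to block cAMP breakdown; potency is read from the fitted curve at half-maximal effect; nearly all actives have a fitted effect of over 60% in size; about a fifth of the inactives were tested at one dose only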
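Cells in DMEM/10% FBS with G418 were pretreated with compounds in DMSO plus […] (300 uM stock) for 30 min at 37C. cAMP was measured by HTRF (cAMP-d2 plus anti-cAMP antibody-K) after 30 min at room temperature.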
D2 agonist: agonists of human D2 dopamine receptor (beta-arrestin) | P14416 | DiscoveRx PathHunter D2 beta-arrestin, luminescence, 90 min; 100% = 57 uM dopamine signal | activation, % (test concentration not listed) | 0.084% of 360,000 active; in the data active = activation above about 40%; inconclusive = about 15% to 40%; inactive = below about 15%; also: compound concentration not given in the record; the text of the record calls up to 30% inactive
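DiscoveRx PathHunter D2 beta-arrestin cells (2,100/well) attached overnight, then compound-stimulated 90 min at 37 C in HBSS/10 mM HEPES/0.1% Tween-20 buffer; beta-galactosidase complementation read by luminescence after 1 h at ambient temperature. Dopamine 57 uM final (EC100) as control.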
CtBP-E1A inh: CtBP/E1A binding inhibition. AlphaScreen GST-E1A/His-CtBP binding, 1536-well; stronger effect = lower value; control for the full effect not named in the record. activity change, % (concentration not given with the values). 0.49% of 340,000 active. AID 651724; in the data active means activity change below about -65%; inconclusive means about -30% to -65%; inactive means above about -30%; also: % is scaled to controls: 0 for no effect and ±100 for the full control effect
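Homogeneous bead-based format: GST-tagged E1A captured on glutathione donor beads, His-tagged CtBP on nickel acceptor beads; compounds precede bead addition by 2 h at 37 °C.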
gsp antag: antagonists of gsp mutant (McCune-Albright syndrome). Potency, µM (series often up to 76.9 µM), for inactives: at the highest dose activity change, negative = inhibition, most hits filed as inhibitors. 0.4% of 340,000 active. gsp-mutant cells, cAMP HTRF, 30 min; control for the full effect not named in the record; active = falling curve of any shape with a large fitted effect; inconclusive = falling curve, mostly with a smaller effect; inactive = flat or rising curve; cell line not stated here;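 also: intracellular cAMP measured with PDE inhibitor Ro 20-1724 present during compound exposure; potency is read from the fitted curve at half-maximal effect; % is scaled to controls: 0 for no effect and ±100 for the full control effect; nearly all actives have a fitted effect of over 65% in size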
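HTRF cAMP read-out (cAMP-d2 plus anti-cAMP antibody-K in lysis buffer, 30 min RT). Before lysis, cells are exposed to compounds with […] for 30 min at 37C in DPBS containing Ca/Mg, BSA and Tween 20.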
Six1-Eya2 blk: blocks human Six1 binding to Eya2; AlphaScreen GST-Six1/His-Eya2 binding, biochemical; stronger effect = lower value; control for the full effect not named in the record; AID 651725; activity change, % (concentration not given with the values); 0.56% of 360,000 active; Q15475+O00167; in the data active = activity change below about -65%; inconclusive = about -30% to -65%; inactive = above about -30%; also: % is scaled to controls: 0 for no effect and ±100 for the full control effect
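Homogeneous AlphaScreen proximity assay pairing GST-Six1 with His-tagged Eya2 (added as 5X mix: 250 nM and 500 nM) in 50 mM Tris pH 8.0, 300 mM NaCl, 1 mM TCEP. Glutathione donor and nickel acceptor beads; 1 h, 37 °C, dark.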
The depositor's hits bear a star; ? = inconclusive; / = no result given; [ ] = remark or other dose.

smiles	D2 agonist	gsp ag	Six1-Eya2 blk	D2 potentiator	CtBP-E1A inh	gsp antag
O=[N+]([O-])c1cccc(-c2csc(Nc3ccccc3)n2)c1	0.6	-14%[15.4 µM]	-27	-20	-2	/
Oc1c(CN2CCc3ccccc3C2)cc(Cl)c2cccnc12	-9.3	33%	-93*	-21	-89*	-16%
C=C[C@]1(C)C=C2CC[C@H]3[C@@](C)(CCC[C@@]3(C)C(=O)O)[C@@H]2CC1	-6.2	-42%[inhibitor]	8	1	-6	7%
NC(=O)c1nnsc1-c1ccco1	0.2	-1%	-2	-5	4	-9%
CC(=O)C1=C(O)C(CSCc2ccccc2)N(C)C1=O (centres undefined)	0.5	-59%[inhibitor]	11	1	0	-10%
O=C(Cn1nnc(-c2ccccc2NC(=O)c2cccs2)n1)Nc1ccccc1	-1.7	?	-2	-41	2	-4%
COc1ccc(N2C3=C(C(=O)CC(C)(C)C3)C(c3ccccc3OC)C3=C2CC(C)(C)CC3=O)cc1	6.5	?	1	4	9	28µM*
NC(=O)C1CCN(c2ccnc3cc(Cl)ccc23)CC1	-1.6	-7%	6	-7	0	3%
COc1cccc(CNC(=O)CCc2nnc(C3CCCCC3)o2)c1	2.6	17%	5	-2	11	10%
CCN1C(=O)CSC1=Nc1cccc(C(=O)O)c1	0.8	1%[15.4 µM]	17	1	9	9%
COc1ccc(/C=N/N2CCN(c3ccc(Cl)cc3)CC2)cc1O	1.9	-7%[15.4 µM]	17	-12	13	-21%
Clc1ccc(SCc2cc(N3CCOCC3)nc(-c3ccccn3)n2)cc1	-1.3	-8%	-26	-14	-25	2%
CCOC(=O)c1ccc(NC(=O)c2sc3nc4n(c(=O)c3c2C)CCC4)cc1	9.8	20%	5	16	0	?
CC(C)CCNC(=O)[C@H](Cc1ccccc1)N1Cc2ccccc2C1=O	-2.8	30%	7	-5	10	1%
CC(NC(=O)c1ccco1)C(=O)N1CCc2ccccc2C1 (centres undefined)	-4.6	-13%	-2	-15	-1	4%
COc1ccc(CCNC(=O)c2coc3ccccc3c2=O)cc1	-5.9	-3%[15.4 µM]	7	-3	2	-19%
Cc1ccc(S(=O)(=O)N2CCOCC2)cc1C(=O)NC1CCCC(C)C1C (centres undefined)	-2.6	3%	0	-1	-24	1%
COc1ccc(OC)c(NC(=O)Cn2c(CCC(=O)O)ccc2-c2ccc(C)cc2)c1	-3.5	?	-6	-5	-3	?
Cc1cc(C)c(NC(=O)CN(C)S(=O)(=O)c2ccc3c(c2)n(C)c(=O)c(=O)n3C)c(C)c1	-4.6	?	1	1	4	14%
COc1ccc(S(=O)(=O)Nc2cc3c(C(C)=O)c(C)oc3c3ccccc23)cc1	5.0	-9%	-8	-1	0	16%
COc1cc(CN2CCN(c3cccc(C)c3C)CC2)cc([N+](=O)[O-])c1O	-7.7	-3%[15.4 µM]	-23	-7	0	-17%
Cc1cc(N(C)N)nc(NC(=O)NS(=O)(=O)c2ccccc2Cl)n1	-4.1	8%[15.4 µM]	-74*	-10	-94*	6%
CC(C)(C)c1ccc(C(=O)NC(=S)N2CCOCC2)cc1	0.1	-47%[inhibitor]	9	-15	7	2%
O=C(c1ccc(Br)o1)N1CCN(C/C=C/c2ccccc2)CC1	-4.6	-2%	-12	-33	-3	0%
Cc1[nH]nc2c1C1(CCOC1C)C(C#N)=C(N)O2 (centres undefined)	-1.0	-41%[inhibitor]	9	3	12	6%
O=C(CSc1nnnn1-c1ccccc1)N1N=CCC1c1ccccc1 (centres undefined)	1.8	13%[15.4 µM]	18	-7	1	-19%
Cc1ccc(C2C(C#N)=C(N)Oc3n[nH]c(C)c32)cc1 (centres undefined)	-3.5	4%	-4	-7	-3	-26%
Cc1ccc(CNC(=O)CS(=O)(=O)CC(=O)O)cc1	-2.9	-19%	-1	5	7	10%
Cc1nn(-c2ccccc2)c2sc(C(=O)c3c(N)n(C)c(=O)n(C)c3=O)cc12	0.4	-17%	-5	?	-2	-4%
Cn1c(COc2ccc(F)cc2)nnc1SCC(=O)NC1CC1	-4.9	-11%[15.4 µM]	7	3	3	3%
CSCCC1NC(=O)N(CC(=O)Nc2cc(C)on2)C1=O (centres undefined)	-3.6	8%	2	-4	-7	-1%
CCS(=O)(=O)N1CCN(C(C)CCc2ccccc2)CC1 (centres undefined)	13	-21%	-2	3	4	4%
Cc1cc(N2CCCCCC2)nc2ccc(F)cc12	-1.0	4%	65	-11	39	?
Cc1nc2ccccc2nc(C)c1=NOCc1ccc(C#N)cc1	-1.3	19%	6	-12	0	13%
Cc1ccc(/C=C2\SC(=O)N(CCC(=O)N3CCN(C)CC3)C2=O)cc1	-1.4	-1%	8	-6	-1	4%
O=C(CCc1ccc(S(=O)(=O)N2CCOCC2)cc1)Nc1c(F)cccc1F	0.5	-39%[inhibitor]	-2	-6	/	-4%
Cc1ccc(S(=O)(=O)C2C(=O)N(C)C3(C)CC2c2ccccc2O3)cc1 (centres undefined)	-2.1	?	-6	-26	-5	8%
COc1ccc(Cl)cc1NC(=O)C(C)N(C)Cc1ccc(C(F)(F)F)cc1 (centres undefined)	-2.9	-19%	22	-23	20	-2%
O=C(Cc1cccs1)Nc1cc(SCCO)cc([N+](=O)[O-])c1	3.7	12%	-6	-10	-15	-6%
O=C(O)COc1ccc(Br)cc1/C=C1/SC(=O)N(CC(=O)N2CCCC2)C1=O	-0.9	-37%[inhibitor]	4	-25	-2	-3%
N#CC(C(O)c1ccccc1)N1CCOCC1 (centres undefined)	-3.3	8%	2	-4	3	/
CCCn1c(SCC(=O)NC2CCCC2)nnc1C(C)C	-0.9	-11%[15.4 µM]	0	0	11	1%
O=C(CN1C(=O)NC2(CCOc3ccccc32)C1=O)Nc1cccc(Cl)c1 (centres undefined)	-6.3	-14%	7	-6	/	8%
Cn1cc(Br)c(C(=O)Nc2sc3c(c2C(N)=O)CCCC3)n1	2.3	8%[15.4 µM]	?	0	?	-18%
Cc1ccnc(NC(=O)c2ccc(NC(=O)c3ccco3)cc2)c1	3.2	-32%[inhibitor]	-3	8	-3	-7%
O=C(C1CCCCC1)N1C[C@@H](O)[C@H](n2cc(C3CC3)nn2)C[C@@H]1c1ccc(Cl)cc1	-8.8	-2%	4	2	4	/
O=S(=O)(NCc1cc(-c2ccccc2)no1)c1ccccc1	-5.9	?	12	-3	0	-16%
Cc1cn([C@H]2C[C@H](O)[C@@H](/C=C/C(=O)NCCc3cccs3)O2)c(=O)[nH]c1=O	-2.4	/	3	1	5	/
COC(=O)C1=C(N)Oc2cc(C)n(CCN3CCOCC3)c(=O)c2C1c1cccnc1 (centres undefined)	-1.4	16%	0	-8	-1	-1%
CN(C)c1nc(OCCOC(=O)Nc2ccc(Cl)cc2Cl)nc(N(C)C)n1	-3.3	-4%	1	-8	5	-14%

Reprinted from the part before: four compounds; new compounds follow.
smiles	D2 agonist	gsp ag	Six1-Eya2 blk	D2 potentiator	CtBP-E1A inh	gsp antag
O=S(=O)(NCc1cc(-c2ccccc2)no1)c1ccccc1	-5.9	?	12	-3	0	-16%
Cc1cn([C@H]2C[C@H](O)[C@@H](/C=C/C(=O)NCCc3cccs3)O2)c(=O)[nH]c1=O	-2.4	/	3	1	5	/
COC(=O)C1=C(N)Oc2cc(C)n(CCN3CCOCC3)c(=O)c2C1c1cccnc1 (centres undefined)	-1.4	16%	0	-8	-1	-1%
CN(C)c1nc(OCCOC(=O)Nc2ccc(Cl)cc2Cl)nc(N(C)C)n1	-3.3	-4%	1	-8	5	-14%
COc1ccc(S(=O)(=O)N2CCN(C(=O)[C@@H]3CCC(=O)N3C3OC(=O)c4ccccc43)CC2)cc1 (some centres undefined)	-2.4	3%	4	-3	6	6%
C[C@@H]1CN([C@@H](C)CO)S(=O)(=O)c2ccc(Br)cc2O[C@H]1CN(C)C(=O)c1ccccc1F	-0.9	?	0	-4	-20	/
O=C(NNS(=O)(=O)c1cc(Cl)c(Cl)cc1Cl)c1cccnc1	0.1	?	0	-8	7	-15%
CC(=O)Nc1ccc2nc(NC(=O)CS(=O)(=O)c3ccc(F)cc3)sc2c1	3.7	?	?	-7	?	/
O=C(COc1cccc(C(F)(F)F)c1)N1CCN(c2ccccc2O)CC1	-0.3	14%	1	0	1	-8%
CCOc1ccccc1NC(=O)CN(c1nccs1)S(=O)(=O)c1ccc(N)cc1	-1.7	-1%	1	-15	11	13%
O=C(NCCc1c[nH]c2ccccc12)c1ccc(-n2cnnn2)cc1	-0.1	14%	2	3	-7	2%
CCc1nnc(N2CCN(c3ncnc4c3oc3ccccc34)CC2)s1	0.9	0%[15.4 µM]	4	-13	-10	-16%
CCCNC(=O)c1cc(C2CCCCN2C(=O)c2ccc3c(c2)CCO3)on1 (centres undefined)	-2.5	/	-1	-2	3	/
COc1cc(NC(=O)Nc2ccc(Cl)c(Cl)c2)c(C(=O)O)cc1OC	-0.6	28%	-14	-5	-18	-3%
C=CCNc1nc2c(c(=O)[nH]c(=O)n2C)n1CCCCC	-1.8	5%	6	-2	6	-1%
COc1ccc2[nH]c(C)c(CN3CCC(C)CC3)c(=O)c2c1	0.4	-47%	5	-9	9	4%
Cc1cc(CNC(=O)c2cc(Br)ccc2Cl)nn1C	0.3	-39%[inhibitor]	7	-6	7	-10%
Nc1n[nH]c(CO)n1	3.3	-27%	4	-11	/	9%
CCOc1ccc(N2CC(=O)N/C2=N\c2nc(C)cc(C)n2)cc1	-3.0	-14%	-3	-14	-6	5%[15.4 µM]
CCCn1c(=O)c2ccccc2n2c(SCc3cc(=O)oc4ccc5ccccc5c34)nnc12	-1.3	-2%	2	9	1	-2%
